# TRPML1 inh: inhibitors of human TRPML1 channel; TRPML1-inducible cells, Ca2+ dye fluorescence, FDSS; stronger effect = lower value; inhibition of EC80 agonist-evoked calcium signal; 390,000 tested, 0.02% active; activity change, negative = inhibition, % (no concentration beside the values); AID 624415; in the data active means activity change below about -50%; inconclusive means about -30% to -50%; inactive means above about -30%;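 further: stimulus is agonist 54-4 at its EC80 concentration; on the % scale 0 is the no-effect control and ±100 the full control effect; compound concentration not given in the record; the text of the record puts the active cut at -80%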
# Target sequence (Q9GZU1 whole entry, looked up): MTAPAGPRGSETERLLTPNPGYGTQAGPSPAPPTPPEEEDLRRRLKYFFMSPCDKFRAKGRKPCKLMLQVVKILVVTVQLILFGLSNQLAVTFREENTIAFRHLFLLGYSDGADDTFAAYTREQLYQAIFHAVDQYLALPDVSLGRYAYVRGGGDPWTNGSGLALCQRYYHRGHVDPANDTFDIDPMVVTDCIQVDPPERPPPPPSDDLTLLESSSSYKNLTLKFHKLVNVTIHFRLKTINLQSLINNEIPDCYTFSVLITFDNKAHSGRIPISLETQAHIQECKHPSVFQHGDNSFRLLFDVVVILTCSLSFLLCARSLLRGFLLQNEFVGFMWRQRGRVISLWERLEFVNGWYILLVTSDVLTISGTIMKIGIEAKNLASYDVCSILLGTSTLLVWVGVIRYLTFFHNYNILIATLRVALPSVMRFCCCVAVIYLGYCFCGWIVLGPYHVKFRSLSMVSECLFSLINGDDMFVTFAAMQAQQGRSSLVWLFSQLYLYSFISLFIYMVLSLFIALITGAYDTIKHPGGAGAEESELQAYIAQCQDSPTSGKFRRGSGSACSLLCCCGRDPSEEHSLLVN
#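 TRPML1-DL cells, Tet-induced overnight (~16 h, 37 °C) at 1,500 cells/well, were loaded with Ca8 no-wash dye plus quencher for 45-90 min at room temperature. Compounds were pinned during FDSS kinetic reading; agonist 54-4 at EC80 (4 uM final) then added.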
# ClpP mod: qHTS Assay for Activators of ClpP. ATP-dependent Clp protease proteolytic subunit (Bacillus subtilis (strain 168)), P80244. purified B. subtilis ClpP, FRET peptide cleavage, 20 min. Potency, µM (series often up to 57.5 µM), for inactives: top-dose activity change, negative = active. 340,000 tested, 1.9% active. AID 651965, 2013; active = well fitted falling curve with a large enough effect; inconclusive = small, poorly fitted or top-dose-only effect; inactive = no such curve, though single readings can be large or run the other way; further: potency means the concentration at half of the fitted maximal effect; the source files actives as falling curves though it sought activators and does not explain the sign; nearly all actives have a fitted effect of over 65% in size; many hits overshoot -100%
# Target sequence (P80244 whole entry, looked up): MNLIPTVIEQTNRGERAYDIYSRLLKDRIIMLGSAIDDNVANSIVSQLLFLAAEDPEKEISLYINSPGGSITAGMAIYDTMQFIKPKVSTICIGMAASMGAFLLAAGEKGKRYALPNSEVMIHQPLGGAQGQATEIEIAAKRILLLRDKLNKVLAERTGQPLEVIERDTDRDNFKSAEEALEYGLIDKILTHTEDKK
#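 ClpP 10 microg/mL final, pH 8 Tris/KCl buffer with BSA, glycerol, Tween-20; compound pinned in; FRET-FV substrate; RT 20 min; Ex320/Em430; ΔFRET vs ADEP 5.8 microM, DMSO, no enzyme.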
# Starred values were filed as active, the others as inactive; u = inconclusive. A portion of the library; rates above refer to the full screens.
SMILES,TRPML1 inh,ClpP mod
O=C(CC[C@H]1O[C@@H](n2ccc(=O)[nH]c2=O)[C@H](O)[C@@H]1O)N[C@H](Cc1ccccc1)C(=O)NCc1ccco1,2,-1.6%
Cc1ccc(C2C=C(c3ccccc3)Nc3nc(NS(=O)(=O)c4ccccc4)nn32)cc1 (stereo not drawn),1,4.4%
CCOC(=O)C1=C[C@@H](c2ccccc2)N(S(=O)(=O)c2ccc(C)cc2)[C@H]1c1ccc(F)cc1,-14,-4.6%
O=C(NCCS(=O)(=O)N1CCN(c2ccccc2F)CC1)C(c1ccccc1)c1ccccc1,-6,0.1%
O=C(Nc1ccc(-c2nc3cc(NC(=O)c4ccccc4F)ccc3o2)cc1)c1ccccc1F,-9,-26%
Cc1ccc(C(=O)NCc2ccc(F)cc2)cc1NC(=O)c1nsc2ccccc12,44,81%
O=c1oc2ccccc2cc1-c1nc(-c2cccc(Cl)c2)cs1,13,4.5µM*
Cc1ccc(Nc2cc(C)nc3nc(Cc4ccc(Cl)cc4)nn23)cc1,13,-3.7%
O=c1cc(-c2ccccc2)n2c(SCc3ccc(Br)cc3)nnc2[nH]1,27,u
COc1ccc(C(=O)Nc2cccc(OCc3cc(=O)n4c5c(sc4n3)CCCC5)c2)cc1OC,-8,-27%
CCOc1cc(CNc2ccc(O)cc2)ccc1OCc1ccc(Cl)cc1,7,-3.5%
CCCCOc1ccc(C(=O)NCc2cn3cccc(C)c3n2)cc1,7,-26%
Cc1cccc(OCc2ccc(-c3nc(C#N)c(NCc4cccnc4)o3)o2)c1,-6,3.9%
CCOc1cc(CNc2ccc(C(=O)O)cc2)ccc1OCc1ccccc1,-7,-7.6%
O=C(NCCc1ccc(F)cc1)C(=O)NCC(c1cccs1)S(=O)(=O)c1ccc(F)cc1 (stereo not drawn),32,0.0%
Cn1cc(S(=O)(=O)N2CCCCCC2)cc1C(=O)N1CCN(c2ccccc2F)CC1,-12,-1.1%
COc1ccccc1NC(=O)CCn1c(=O)oc2cc(Cl)ccc21,-4,1.3%
CC(C)CC(=O)NCC(c1ccc2c(c1)OCO2)N1CCN(c2ccc(F)cc2)CC1 (stereo not drawn),10,-0.7%
CCN(CC)CCNC(=O)c1nn(C)c2c1CS(=O)(=O)c1ccccc1-2,8,-22%
COC(=O)c1ccc(OCC2c3cc(OC)c(OC)cc3CCN2C(=O)c2cccc(C)c2)cc1 (stereo not drawn),49,-2.1%

# Reformatted with each value named: part of the list above
> O=C(NCCS(=O)(=O)N1CCN(c2ccccc2F)CC1)C(c1ccccc1)c1ccccc1
  TRPML1 inh: -6
  ClpP mod: 0.1%

> O=C(Nc1ccc(-c2nc3cc(NC(=O)c4ccccc4F)ccc3o2)cc1)c1ccccc1F
  TRPML1 inh: -9
  ClpP mod: -26%

> Cc1ccc(C(=O)NCc2ccc(F)cc2)cc1NC(=O)c1nsc2ccccc12
  TRPML1 inh: 44
  ClpP mod: 81%

> O=c1oc2ccccc2cc1-c1nc(-c2cccc(Cl)c2)cs1
  TRPML1 inh: 13
  ClpP mod: 4.5µM*

# Remaining list, next part:
SMILES,TRPML1 inh,ClpP mod
O=c1cc(COc2cccc(C(F)(F)F)c2)nc2sc3c(n12)CCCC3,0,1.1%
CC(C)c1nc2sc3c(N4CCCCC4)ncnc3c2c2c1CCCC2,44,-3.2%
O=C(c1ccco1)N1CCN(C(=O)c2[nH]c(C(F)(F)F)nc2-c2ccccc2)CC1,19,-1.1%
COc1ccccc1CNC(=O)c1cc2c(=O)oc3ccc(C)cc3c2s1,-1,3.9%
Cc1cccc(NC(=O)C2CCN(S(=O)(=O)c3ccc4[nH]c5c(c4c3)CCCCC5)CC2)c1,-19,-28%
CCn1c(C(=O)NCc2ccc(C)cc2)cc2sc(Cl)cc21,13,-0.5%
CC(=O)Nc1nonc1-c1nnc(SCc2ccc(Cl)cc2)n1C,2,-1.9%
Cc1cccc2sc(N(Cc3cccnc3)C(=O)CCOc3ccccc3)nc12,78,3.0%
COCCNC(=O)CCCn1c(SCc2ccccc2C)nc2c(sc3ccccc32)c1=O,1,-15%
CC(C)c1ccc(-n2nnnc2SCc2nc(N)nc(N)n2)cc1,-14,-3.0%
COc1ccc(OC)c(S(=O)(=O)N2Cc3ccccc3CC2C(=O)Nc2ccc(C)cc2C)c1 (stereo not drawn),-6,-3.4%
CCCCOc1ccc(-c2nonc2NC(=O)c2ccco2)cc1,-6,0.3%
COc1ccc(S(=O)(=O)NCC(c2ccc(N(C)C)cc2)N2CCCC2)cc1F (stereo not drawn),3,-3.6%
CCc1nc2c(OCCOc3ccccc3)cccn2c1N(C)C(=O)c1ccccc1F,21,-3.7%
O=C(CCS(=O)(=O)c1cccc2nonc12)Nc1cccc(F)c1,-2,0.8%
Oc1c(C(c2ccccc2F)N2CCCCC2)sc2nc(-c3ccco3)nn12 (stereo not drawn),5,-0.1%
CCOc1ccc(Nc2oc(/C=C/c3cc(OC)c(OC)c(OC)c3)nc2C#N)cc1,20,-24%
Fc1ccc(-c2cn3cc(Cc4ccccc4)sc3n2)cc1,-11,0.0%
COc1cccc(CNC(=O)c2ccc(-c3nc(COc4ccccc4)c(C)o3)cc2)c1,4,4.2%
CCCn1c(-c2ccc(S(=O)(=O)N3CCOCC3)cc2)csc1=Nc1ccc(OCC)cc1,-7,-3.2%

# One compound at a time, as listed above. Order of values: TRPML1 inh	ClpP mod
# Listed for COc1cccc(CNC(=O)c2ccc(-c3nc(COc4ccccc4)c(C)o3)cc2)c1 : 4	4.2%
# Listed for Cn1cc(S(=O)(=O)N2CCCCCC2)cc1C(=O)N1CCN(c2ccccc2F)CC1 : -12	-1.1%
# Listed for COCCNC(=O)CCCn1c(SCc2ccccc2C)nc2c(sc3ccccc32)c1=O : 1	-15%
# Listed for O=c1cc(COc2cccc(C(F)(F)F)c2)nc2sc3c(n12)CCCC3 : 0	1.1%

# (listing goes on)
SMILES,TRPML1 inh,ClpP mod
Cc1ccc2nc(NC(=O)CSc3nccn3Cc3ccc(F)cc3)sc2c1,-5,-2.1%
COc1cccc2c1cc1c(=O)n(CC(=O)N3CCN(c4ccc(Cl)cc4)CC3)nc(C)n12,-20,-18%
COc1cccc(Cn2c(SCc3ccc(C(=O)N4CCC(C)CC4)cc3)nc3ccncc32)c1,-16,-3.3%
O=S(=O)(c1cccc(Cl)c1)c1nnn2c1nc(NC1CCCC1)c1sccc12,-4,-5.7%
CCCCCN1C(C(=O)c2ccccc2)=C(NC(=O)c2ccc(C)cc2)c2ccccc2S1(=O)=O,14,-2.5%
Cc1cc(N2CCN(C)CC2)nc2ccc(NC(=O)Nc3ccccc3Cl)cc12,6,3.8%
COc1ccc(OCc2ccc(-c3nc(C#N)c(N4CCN(C)CC4)o3)o2)cc1,14,28µM*
Cc1ccc(CC(=O)Nc2c(C(=O)N3CCN(c4ccccc4)CC3)oc3ccccc23)cc1,-12,-5.8%
Cc1ccc(CN2c3ccccc3S(=O)(=O)c3ccccc32)cc1,10,u
O=c1cc(-c2ccccc2)nc(SCc2nc(-c3cccc(C(F)(F)F)c3)no2)[nH]1,-7,-0.5%
COc1ccc(CCNS(=O)(=O)c2c(C)nc3sc(C)cn3c2=O)cc1OC,-3,0.1%
COC(=O)c1ccc2c(c1)N(CC(=O)Nc1cccc(C(F)(F)F)c1)C(=O)c1ccccc1S2,16,2.3%
O=S(=O)(NCCc1csc2nc(-c3ccc(F)cc3)nn12)c1ccc2c(c1)OCCO2,32,-0.8%
CCCOc1ccc(/C=C/C(=O)Nc2sc3c(c2C(=O)OCC)CCC(C)C3)cc1OC (stereo not drawn),-4,-3.8%
Cc1ccc(S(=O)(=O)c2cn(Cc3cccc(F)c3)c3cc(N4CCCC4)c(F)cc3c2=O)cc1,-13,3.5µM*
CCCc1nc2c(C)cc(Br)cn2c1Cc1ccsc1,-8,-5.3%
COc1ccc(Cl)cc1-n1c(CCC(=O)O)ccc1-c1ccc(C)cc1,-5,0.0%
CC1=C(C(=O)Nc2ccc(C)cc2)C(c2ccccc2Cl)n2nnnc2N1 (stereo not drawn),1,2.2%
CCN(CC)C(=O)c1ccc2c(c1)N(Cc1ccc(C(F)(F)F)cc1)C(=O)c1ccccc1S2,-1,2.5%
Cc1cc(C)c(/C=C/c2onc(C)c2S(=O)(=O)N2CCC(C(=O)NCC(C)c3ccccc3)CC2)c(C)c1 (stereo not drawn),5,-5.9%
N#Cc1c(-c2ccccc2)cc(-c2ccccc2)nc1SCC(O)CS(=O)(=O)Cc1ccc(Cl)cc1 (stereo not drawn),1,10µM*
CCN1CCN(c2c(S(=O)(=O)c3ccc(C)c(C)c3)cnc3cc(OC)c(OC)cc23)CC1,-19,-2.9%
COc1cc(Cl)c(C)cc1NC(=O)c1cc2c(s1)-c1c(C)cccc1OC2,-13,-10%
Cc1ccc(CNC(=O)c2sc3nc(-c4ccccc4)cn3c2C)cc1,57,u
O=C(COc1ccc(Cl)cc1)Nc1ccc(-c2nc3cc(Cl)ccc3o2)c(O)c1,10,-14%
COc1ccc2c(c1)c(=O)c(S(=O)(=O)c1ccc(C)c(C)c1)cn2CC(=O)Nc1ccccc1,-10,u
Cc1ccc(-n2c(SCCC(C)C)nc3sc4c(c3c2=O)CC(C)(C)OC4)cc1,0,-2.2%
Cc1cccc(N2CC(C)Cn3c2nc2c3c(=O)n(CC(=O)O)c(=O)n2C)c1 (stereo not drawn),-3,-7.5%
C=Cc1ccc(Cn2c(C)c(CNCCc3ccc(OCC)cc3)c(C(=O)O)c2C)cc1,1,-0.3%
COc1cc(NC(=O)CN2C(=O)C(c3ccc(C)cc3)=NC23CCCCCC3)cc(OC)c1,11,-5.6%
Cc1ccc(-c2nc3c4ccccc4n(CC(=O)N4CCN(c5ccccc5F)CC4)c(=O)n3n2)cc1,18,-2.2%
CCc1ccccc1OCCSc1nnc(-c2cc(OC)c(OC)c(OC)c2)o1,10,25µM*
COc1ccc(Cl)cc1NC(=O)CN1Cc2ccccc2C1=O,10,-1.5%
CCCCCC(=O)Nc1ccc(NC(=O)c2cc3ccccc3o2)c(OC)c1,-3,-15%
COc1ccc(-c2cc(C(F)(F)F)nc(SCC(=O)NCCc3ccccc3)n2)cc1OC,22,4.0%
O=C(c1ccccc1)N1CCN(CCc2ccncc2)CC1,8,3.0%
CCOc1ccc(-c2nnc(SCC(=O)Nc3cccc(C#N)c3)o2)cc1,12,-22%
COc1cc(OC)c(NC(=O)CN2C(=O)CCn3nc(-c4cccn4C)cc32)cc1Cl,1,1.2%
COc1cc(OC)c(NC(=O)N2CC=C(c3c[nH]c4ccccc34)CC2)cc1Cl,-6,-9.5%
O=C(c1ccco1)n1nc(-c2ccccc2)nc1NCc1ccc(F)cc1,-14,-6.5%
Cn1c(=O)c2c(ncn2CC(=O)Nc2cccc(C(F)(F)F)c2)n(C)c1=O,-4,-0.3%
Cc1cc(NC(=O)c2ccc(Cl)c(Cl)c2)ccc1-c1cc2ccccc2oc1=O,67,u
CCc1ccc(CNC(=O)c2cc3cc(S(=O)(=O)N4CCCCC4)ccc3n2C)cc1,3,u
COc1cc(N2C(=O)CSC23C(=O)N(Cc2cccc(F)c2)c2ccccc23)cc(OC)c1OC (stereo not drawn),-6,0.2%
Cc1nc2ccn(Cc3cccnc3)c(=O)c2cc1C(=O)Nc1ccc(OC(F)(F)F)cc1,-6,-23%
COc1cccc(C(=O)c2cn(CC(=O)Nc3cccc(C(F)(F)F)c3)c3nc(C)ccc3c2=O)c1,3,-1.5%
COc1cccc(-c2nc3c(C#N)c[nH]n3c2NC2CCC(C)CC2)c1 (stereo not drawn),7,-3.7%
O=C(Nc1onc2c1CCCC2)c1ccccc1,-20,0.3%
COc1ccc(OCC(=O)NCc2ccc3c(c2)CCN3C(=O)c2ccc(F)cc2)cc1,-2,-2.3%
COc1ccccc1-c1c(C)nn2c(N3CCN(c4cccc(Cl)c4)CC3)cc(C)nc12,5,-4.5%

# Additional entries.
SMILES,TRPML1 inh,ClpP mod
Cc1cc(C)cc(Nc2nc3c(S(=O)(=O)c4cccc(Cl)c4)nnn3c3ccsc23)c1,21,-3.9%
CCOC(=O)c1c(C)oc2ncnc(NCCc3ccccc3)c12,4,0.1%
Cc1cc(NC(=O)CN(C)S(=O)(=O)c2ccc3c(c2)CCC(=O)N3)ccc1Br,3,-3.6%
CCOc1ccccc1NC(=O)n1ncc2cc(Cl)ccc21,-5,-9.7%
O=C(O)Cn1c(-c2cccs2)cc2cc(Cl)ccc21,-3,4.7%
COc1ccc(CNC(=O)c2cnc(N(C)C)nc2)cc1,-5,-15%
COc1ccc(Cn2nnc3c(=O)[nH]c(C4CCN(C(=O)c5ccc(C)cc5)CC4)nc32)cc1OC,-2,-2.6%
Cc1ccc(CNC(=O)c2cccc(-n3cnc4cccnc43)c2)cc1,-7,2.0%
Cc1ccc(NC(=O)c2sc3nc[nH]c(=O)c3c2C)cc1C,-2,-1.0%
Cc1cc(N2CCCCC2)nc2ccc(NC(=O)c3cccc(F)c3)cc12,-21,-5.3%

# High-throughput results: PubChem BioAssay, National Center for Advancing Translational Sciences (NCATS)
